Screening results: PubChem, National Center for Advancing Translational Sciences (NCATS)
miR-21 FLuc – qHTS Assay for Modulators of miRNAs and/orActivators of miR-21. HeLa miR-21 FLuc reporter, luciferase, 48 h. Potency, µM (series often up to 38.3 µM), for the others: at the highest dose reporter change, positive = more light. 340,000 tested, under 10 active; active = well fitted rising curve with a large enough effect; inconclusive = small, poorly fitted or top-dose-only effect; inactive = no such curve, though single readings can be large or run the other way;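 further: % of control where 0% means no effect; miR-21 action dims this reporter so a rising signal means less miR-21 action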
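HeLa miR-21-FLuc reporter line, endogenous miR-21; 2000 cells/well in DMEM/10% FBS; compound titration up to ~40uM final, 48 h, 37 degree Celsius; luciferase detection reagent, 15 min lysis, CCD luminescence.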
Rango release inh – qHTS Assay for Inhibitors of RanGTP induced Rango (Ran-regulated importin-beta cargo) - Importin beta complex dissociation. Snurportin-1 (Homo sapiens) + GTP-binding nuclear protein Ran (Homo sapiens) + Importin …. Biochemical FRET Rango-importin beta, RanGTP-induced dissociation. Potency, µM (highest dose often 46.1 µM), for inactives: top-dose activity change, negative = inhibition. 340,000 tested, 0.071% active. AID 540253, 2011; active means falling FRET ratio curve, often poorly fitted, with flat reads before Ran was added; inconclusive means other falling curves, or compound fluorescence or quenching; inactive means flat or rising ratio curve;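 further: potency means the concentration at half of the fitted maximal effect; % of control where 0% means no effect; nearly all actives have a fitted effect of over 45% in size; -100% = wells without RanGTP and RCC1; the record marks most hits as doubtful in a second field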
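Rango (0.1 uM)–importin beta (0.25 uM) complex; RanGTP-RCC1 trigger; 45 min RT; CFP/YFP FRET read.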
GLA inh pH 4.5 – qHTS Assay for Inhibitors of Human alpha-Galactosidase at pH 4.5; purified enzyme, 4-MU-alpha-Gal fluorescence, pH 4.5; activity change, negative = inhibition, % at 105 µM; 230,000 tested, under 10 active; AID 1467, 2008; inconclusive = small, poorly fitted or top-dose-only inhibition, or a rising curve; inactive = flat fitted curve, though single readings scatter; no compound was filed as active;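 further: 0% = full activity with enzyme and -100% = basal without enzyme; dose as in the result columns while the protocol names 77 µM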
Rango-impB inh – qHTS Assay for Inhibitors of Rango (Ran-regulated importin-beta cargo) - Importin beta complex formation; Rango CFP/YFP FRET sensor + importin beta, 45 min; Potency, µM (series often up to 92.2 µM), without a hit: at the top dose inhibition of complex formation; 340,000 tested, 0.031% active; active = rising FRET ratio curve, often small or poorly fitted; inconclusive = mostly compound fluorescence or quenching in the first reads; inactive = flat curves in all reads;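 further: potency means the concentration at half of the fitted maximal effect; 0% = DMSO wells and 100% = buffer wells lacking importin beta; nearly all actives have a fitted effect of over 15% in size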
Target sequence (Q14974 whole entry, looked up): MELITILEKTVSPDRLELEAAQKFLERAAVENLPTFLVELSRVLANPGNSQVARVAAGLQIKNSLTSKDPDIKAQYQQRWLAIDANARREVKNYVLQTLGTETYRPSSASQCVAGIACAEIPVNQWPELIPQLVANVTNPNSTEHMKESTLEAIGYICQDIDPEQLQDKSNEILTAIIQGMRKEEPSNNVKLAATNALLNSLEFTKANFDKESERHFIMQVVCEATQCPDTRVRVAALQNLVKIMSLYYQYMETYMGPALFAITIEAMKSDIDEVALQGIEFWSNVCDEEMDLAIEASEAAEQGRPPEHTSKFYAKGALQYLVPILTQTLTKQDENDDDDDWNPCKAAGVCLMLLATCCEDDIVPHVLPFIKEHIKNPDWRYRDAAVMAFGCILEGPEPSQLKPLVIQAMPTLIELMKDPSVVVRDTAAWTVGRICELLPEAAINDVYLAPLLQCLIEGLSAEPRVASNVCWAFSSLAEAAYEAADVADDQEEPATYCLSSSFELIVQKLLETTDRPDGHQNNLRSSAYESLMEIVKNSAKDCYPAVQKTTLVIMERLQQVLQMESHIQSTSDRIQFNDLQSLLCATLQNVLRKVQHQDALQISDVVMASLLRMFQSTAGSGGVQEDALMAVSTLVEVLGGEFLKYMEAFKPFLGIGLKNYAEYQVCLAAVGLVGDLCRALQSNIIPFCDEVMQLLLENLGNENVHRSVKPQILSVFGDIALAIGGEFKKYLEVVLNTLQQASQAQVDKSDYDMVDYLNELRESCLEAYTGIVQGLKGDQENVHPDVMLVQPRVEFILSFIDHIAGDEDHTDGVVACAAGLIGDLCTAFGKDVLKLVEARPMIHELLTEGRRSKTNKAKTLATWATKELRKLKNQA
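Inhibition scored from the CFP 486 nm/YFP 530 nm FRET ratio 45 min after adding 0.125 microM importin beta to 50 nM Rango biosensor preincubated 5 min with compound (room temperature, PBS with DTT, Tween-20, BSA). No-importin wells as positive control.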
Active calls of the source: *; ? = inconclusive; · = not tested or not shown. This is a subset (hit frequency here may not be typical).

SMILES	miR-21 FLuc	Rango release inh	GLA inh pH 4.5	Rango-impB inh
Cc1csc(Nc2ccccc2)[n+]1-c1ccccc1	-0.1%	27.6%	-9.8	6.9%
Cc1ccc(/C=C/C(=O)O)cc1S(=O)(=O)NC1CCS(=O)(=O)C1 (stereo not drawn)	-0.2%	6.2%	11.2	3.9%
O=C(NCc1ccncc1)NC12CC3CC(CC(C3)C1)C2	-16.1%	-1.4%	8.5	-1.9%
Fc1ccc(CNc2cnccn2)cc1	0.1%	-14.4%	4.3	-3.7%
CCOc1cc(N2CCOCC2)c(OCC)cc1NC(=O)CSc1ncccn1	-3.5%	0.9%	1.0	-0.5%
Cc1cc(NC(=O)CSc2nnnn2-c2ccc(F)cc2)no1	3.5%	-23.0%	·	5.1%
COCCn1c(CN2CCN(C(c3ccccc3)c3ccccc3)CC2)nc2c1c(=O)n(C)c(=O)n2C	1.7%	?	·	-3.8%
Cc1nc2ccccc2c(=O)n1NC(=O)/C=C/c1ccccc1	-11.4%	2.5%	4.2	-0.5%
Cc1ccc(S(=O)(=O)/C(C#N)=C/c2c(N3CC(C)OC(C)C3)nc3c(C)cccn3c2=O)cc1 (stereo not drawn)	-8.9%	1.4%	3.4	-1.1%
NC1=NC(=O)C(Cc2ccc(Br)cc2)S1 (stereo not drawn)	2.1%	-19.3%	·	-1.3%
O=C(NCCCN1CCN(c2ccccc2)CC1)Nc1ccccc1C(F)(F)F	-6.9%	1.6%	-9.2	-0.4%
CCc1cc2c(=O)c(-c3nc(C)cs3)coc2cc1OC(C)C(=O)NCCO (stereo not drawn)	-3.0%	-6.8%	1.9	?
C#CCOCCOCCOCCNc1nc(N2CCN(C(=O)C([C@@H](C)O)n3cc([C@@H](N)CCCCN)nn3)CC2)nc(N2CCN(C(=O)[C@H](CCCCN)n3cc([C@@H](N)[C@H](C)CC)nn3)CC2)n1 (stereo partly drawn)	·	-1.9%	·	19.4%
CC(=O)c1cccc(NC(=O)c2ccc(C)o2)c1	-26.4%	8.9%	0.3	0.0%
CS(=O)(=O)N(CC(=O)Nc1ccccc1C(=O)N1CCCC1)c1ccccc1Br	-4.4%	-9.5%	·	-3.6%
N#CCCN(C(=O)CSc1nnc(-c2ccncc2)n1C1CC1)c1ccccc1	·	5.1%	·	-0.2%
Cc1ccc(NC(=O)C2C3C=CC(O3)C2C(=O)O)cc1C (stereo not drawn)	-54.2%	3.2%	·	-1.6%
Cc1cc(NC(=O)c2ccccc2O)nc(C)n1	7.2%	-9.9%	-1.3	0.7%
CN(CCc1ccccc1)C(=O)c1ccc(NC(=O)Cc2ccc(NC(=O)C3CCCN(C(=O)C4CCC4)C3)cc2)cc1 (stereo not drawn)	·	-8.7%	·	0.3%
CC(C)NC(=O)CN1C(=O)c2cccc3cccc1c23	-4.1%	?	·	?
CC1=NN(C(=O)c2ccccc2Br)C(O)(c2ccc(Cl)cc2)C1 (stereo not drawn)	-5.9%	11.1%	·	0.9%
CCC(C)N1C(=O)C2C(C(=O)Nc3cccc(OC)c3)C3C=CC2(O3)C1C(=O)NC1CCCCC1C (stereo not drawn)	0.6%	22.7%	-7.1	3.3%
CC(=O)N1CCCc2cc(S(=O)(=O)NC(C(=O)NC(C)c3ccccc3)C(C)C)ccc21 (stereo not drawn)	-0.6%	6.0%	6.7	-2.3%
CN(C(=O)COC(=O)c1ccccc1SCC(=O)NC1CCCCCCC1)C1CCS(=O)(=O)C1 (stereo not drawn)	-6.1%	-14.9%	-13.9	-0.3%
Cc1cc(=O)oc2c1c(C(F)(F)F)nn2-c1ccccc1	1.6%	2.4%	-5.8	-1.0%
CCCN1CNc2c(c(=O)[nH]c(=S)n2-c2ccc(Cl)cc2)C1	-1.6%	0.6%	6.4	0.0%
COc1ccccc1NC(=O)CSc1nc2n[nH]c(C)c2c(=N)n1-c1ccccc1Cl	15.5%	-9.6%	-14.5	-2.9%
O=C(Oc1ccc(-c2nc(-c3ccccn3)no2)cc1)c1ccccc1	-23.2%	4.7%	4.2	0.3%
NNC(=O)Cn1c(-c2ccccc2)cc(=O)n2ncnc12	0.0%	6.4%	-0.2	-1.8%
CC1(C)[C@H]2CC[C@]1(C)[C@@H](OC(=O)C[N+]1(C)CCOCC1)C2	3.5%	-6.4%	-13.5	-0.5%
O=C(O)c1ccc(NC(=S)NC(=O)c2cccnc2)cc1	-0.2%	-15.9%	·	-1.3%
CC(C)CN(C(=O)COC(=O)c1ccccc1SCC(=O)NC1CCCCCC1)C1CCS(=O)(=O)C1 (stereo not drawn)	-3.1%	24.4%	4.6	-0.6%
c1ccc2[nH]c(Cn3nnc4ccccc43)nc2c1	·	7.8%	·	-0.4%
Nc1nc(-c2cccs2)c(NC(=O)c2ccccc2)s1	-6.0%	15.2%	-5.7	-4.1%
COc1ccc(C(CNC(=O)Cc2cccs2)N(C)C)cc1 (stereo not drawn)	-13.2%	3.1%	·	1.0%
O=C(/C=C/c1ccco1)NC(=S)Nc1ccc(O)c(-c2nc3ccccc3s2)c1	-13.2%	5.2%	-0.5	-1.8%
Cc1ccc2oc3c(c(=O)c2c1)C(c1cccc(Br)c1)N(Cc1ccco1)C3=O (stereo not drawn)	-3.8%	7.3%	3.0	-2.7%
COc1ccccc1N1CCN(C(=O)Cc2ccc(Cl)cc2)CC1	-31.1%	5.4%	·	-0.3%
O=C(CSc1nc2ccccc2c(=O)n1CCCN1CCOCC1)N1CCN(c2ccccc2)CC1	-1.5%	-2.8%	7.0	3.3%
CNC(=O)c1sccc1SCc1ccc(Cl)cc1Cl	-3.2%	0.4%	3.8	-0.6%
Cc1ccc(C(=O)COC(=O)C2CC3CCCC(C2)C3=O)cc1[N+](=O)[O-] (stereo not drawn)	·	-10.3%	·	-0.5%
CCOCCCN(C(=O)Cn1nnc(-c2ccc(C)o2)n1)C(C(=O)NC1CCCC1)c1ccco1 (stereo not drawn)	-0.2%	6.7%	·	-3.6%
CNC(C)C(=O)NC(C(=O)N1CCCC1C(=O)NC1CCCc2ccccc21)C(C)C (stereo not drawn)	·	0.8%	·	0.6%
CCCN1CCC(=O)N(CCSc2ccccc2)CC1	-26.8%	-2.2%	·	-0.2%
CC(=O)NCc1ccc(-c2nc3ccccc3s2)cc1	-24.0%	-25.7%	3.0	-1.7%
CCCOc1cccc(-c2cc(C(=O)N/N=C/c3cccnc3)c3ccccc3n2)c1	5.5%	10.5%	·	5.3%
O=C1CC(C(=O)Nc2cccc(F)c2)n2ncnc2N1 (stereo not drawn)	-1.4%	27.0%	8.3	-1.6%
Cc1occc1C(=O)NCc1ccc(C(=O)O)o1	-0.5%	4.8%	8.3	-2.7%
O=C(CCc1ccccc1)NNC(=O)COc1ccccc1	-4.3%	8.6%	-1.2	2.8%
Cc1ccc(S(=O)(=O)N2CCCCC2)cc1NS(=O)(=O)c1ccccc1F	·	23.8%	·	-4.2%
CCOc1ccc(NC(=S)NCCCN2CCOCC2)cc1	-0.7%	-1.1%	-18.7	2.2%
CC(=O)c1c(C)[nH]c(C(=O)/C(C#N)=C/c2cccc(C)c2)c1C	-11.2%	-13.9%	·	?
O=C(CSc1nccn1-c1cccc(F)c1)NC1CCCC1	·	1.3%	·	2.6%
O=C(c1ccco1)N1CCN(c2ncnc3scc(-c4cccs4)c23)CC1	18.7%	0.0%	-2.2	-1.0%
O=C1c2ccccc2C(Nc2cccnc2)N1Cc1ccc2c(c1)OCO2 (stereo not drawn)	-10.0%	14.2%	5.1	0.3%
O=C(NCc1ccc2c(c1)OCO2)C1CC(=O)N(C2CCCC2)C1 (stereo not drawn)	0.3%	7.7%	4.4	-0.1%
COc1cc(OC)cc(N(C(=O)CNC(=O)c2ccco2)C(C(=O)NCC2CCCO2)c2ccccc2)c1 (stereo not drawn)	12.0%	-11.7%	·	-2.3%
OCC[C@@H]1C[C@@H](O)[C@H](O)[C@@]2(CCc3ccccc3O2)O1	-0.8%	-9.6%	·	2.2%
Cc1ccc(C(=O)NCCNS(=O)(=O)c2ccccc2)cc1	-3.5%	-13.7%	3.9	1.4%
COc1ccc(CCN2CC(C(=O)N3CCC(OC)CC3)CCC2=O)cc1 (stereo not drawn)	-2.3%	3.2%	·	-0.1%
Next part
SMILES	miR-21 FLuc	Rango release inh	GLA inh pH 4.5	Rango-impB inh
CCc1ccc(CNC(=O)c2ccc3c(c2)NC(=O)C(N2CCOCC2)S3)cc1 (stereo not drawn)	16.1%	15.1%	·	5.4%
Cc1ccc(S(=O)(=O)N2CCC(C(=O)OCC(=O)NC(C)c3ccc(F)cc3)CC2)cc1C (stereo not drawn)	·	-9.9%	·	3.6%
COc1ccc(Nc2oc(COc3ccccc3OC)nc2C#N)cc1	?	-5.5%	-14.4	0.5%
Cc1ccc(-c2csc(N3CCN(c4cc5c(cc4Cl)nc(C(C)N)n5CCCO)CC3)n2)cc1 (stereo not drawn)	0.3%	-11.1%	·	1.4%
CCCNC(=O)N[C@@H](Cc1ccccc1)C(=O)OC	-3.0%	-5.8%	2.2	0.0%
Cc1ccc(C2C(C#N)=C(N)Oc3c2c(=O)n(C)c(=O)n3C)cc1 (stereo not drawn)	1.1%	-5.1%	-0.1	-0.7%
CCOc1ccccc1C(=O)NCCNC(=O)c1ccccc1OCC	·	-7.8%	·	-2.2%
O=C(NCCc1ccccc1)c1ccc(=O)[nH]c1	-25.0%	-6.4%	-12.8	3.6%
O=C(CCCn1c(=O)[nH]c2ccsc2c1=O)Nc1ccc(F)cc1	-4.6%	15.5%	-6.4	-3.9%
CC(C)c1ccc(C2NC(=O)NC3=C2CCc2ccccc23)cc1 (stereo not drawn)	-0.2%	4.7%	-9.3	-1.5%
COCCn1c(CNc2ccc(F)cc2)nnc1SCC(=O)Nc1ccc(OC)cc1OC	6.4%	-10.2%	13.9	-4.4%
CSc1n[nH]c(=S)n1N	-3.3%	2.1%	-0.7	-0.5%

Part of the list above, reformatted.
structure: O=C(NCc1ccncc1)NC12CC3CC(CC(C3)C1)C2
  miR-21 FLuc: -16.1% | Rango release inh: -1.4% | GLA inh pH 4.5: 8.5 | Rango-impB inh: -1.9%
structure: Cc1ccc(S(=O)(=O)N2CCC(C(=O)OCC(=O)NC(C)c3ccc(F)cc3)CC2)cc1C (stereo not drawn)
  miR-21 FLuc: · | Rango release inh: -9.9% | GLA inh pH 4.5: · | Rango-impB inh: 3.6%
structure: CS(=O)(=O)N(CC(=O)Nc1ccccc1C(=O)N1CCCC1)c1ccccc1Br
  miR-21 FLuc: -4.4% | Rango release inh: -9.5% | GLA inh pH 4.5: · | Rango-impB inh: -3.6%
structure: COc1ccccc1N1CCN(C(=O)Cc2ccc(Cl)cc2)CC1
  miR-21 FLuc: -31.1% | Rango release inh: 5.4% | GLA inh pH 4.5: · | Rango-impB inh: -0.3%

The results go on.
SMILES	miR-21 FLuc	Rango release inh	GLA inh pH 4.5	Rango-impB inh
C/C(=N\NC(=O)c1c(Br)c(C)nn1C)c1cccc(NC(=O)c2ccccc2C)c1	-22.3%	5.3%	-3.4	-0.9%
CC(C)(C)OC(=O)N1CCCC1C(=O)N1CCCC1C(=O)N1CCCC1C(=O)O (stereo not drawn)	-7.7%	-13.7%	5.4	-1.7%
COCc1cc(C)nc(N/N=C/c2ccc(-c3ccc(Cl)cc3[N+](=O)[O-])o2)c1C#N	-9.7%	-25.0%	-2.7	-0.6%
NC(=O)c1cccnc1Nc1ccccc1Cl	-50.0%	-8.7%	-4.5	0.5%
CC(C)C[C@@H](CO)NC(=O)CC[C@H](NC(=O)OC(C)(C)C)C(=O)N(Cc1ccccc1)Cc1ccccc1	·	-12.6%	·	-4.7%
COc1ccc(NC(=S)NNC(=O)COc2ccc(Cl)cc2Cl)cc1	-14.7%	-10.9%	8.8	0.2%
CC(C)(C)OC(=O)N1CCCC(C(=O)Nc2ccc(C(=O)NC3CC3)cc2)C1 (stereo not drawn)	·	26.5%	·	2.8%
O=C(NCc1ccco1)c1cnn2c(C(F)(F)F)cc(-c3ccccc3)nc12	2.0%	-9.9%	0.0	?
